Bioassay records from PubChem.
A1 inh – blocks A1 activity | MEF A1-2A-BIM cells, caspase-Glo luminescence, 3 h; percent of clofoctol signal, DMSO as zero | caspase activation, % (concentration not given with the values) | actives 0.51% (n = 21,000) | AID 2241;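 active = most replicate scores above 10, or exactly half above 10 with mean activity above 10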;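 also: effector caspase 3 and 7 activity cleaving a DEVD luciferin substrate; 50 nL library stock added to about 30 µL; numbers are from one replicate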
BJeLR viability – lowers viability of BJeLR cells; BJeLR fibroblasts viability, CellTiterGlo ATP luminescence, 48 h; HRASV12, hTERT and SV40 LT/ST transformed; viability loss activity score, % (no concentration beside the values); actives 0.64% (n = 30,000); AID 2275; in the data active = viability loss activity score above about 50%; about a fifth of its hits are not listed in these tables;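 also: higher score means fewer live cells and less ATP luminescence; stock transfer was 50 or 100 nL into about 30 µL; 0% = vehicle wells and 100% = a reference killing control; one replicate is shown; the record names a cut of 85%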
Numbers without * were called inactive; . = no result given. These rows are one share of the data; count on the stated rates, not on these rows.

SMILES,A1 inh,BJeLR viability
CC(=O)CC(c1ccc([N+](=O)[O-])cc1)c1c(O)c2ccccc2oc1=O (stereo not drawn),0.2,3.7
C=CCN(CC=C)S(=O)(=O)c1ccc(C(=O)Nc2nc3c(s2)CC(C)CC3)cc1 (stereo not drawn),-0.1,-0.3
C[C@@H]1CN([C@@H](C)CO)C(=O)c2cc(NC(=O)CCCN(C)C)ccc2O[C@@H]1CN(C)S(C)(=O)=O,1.0,0.6
C[C@H]1CN([C@@H](C)CO)C(=O)c2cccc(NC(=O)c3cnccn3)c2O[C@@H]1CN(C)S(=O)(=O)c1ccc(Cl)cc1,.,6.6
COc1ccc(S(=O)(=O)N(C)C[C@@H]2Oc3ccc(NC(=O)CCCCCC(=O)Nc4ccccc4N)cc3C(=O)N([C@H](C)CO)C[C@@H]2C)cc1,.,-5.0
C[C@H]1CN([C@@H](C)CO)C(=O)c2cccc(NS(=O)(=O)c3ccccc3)c2O[C@@H]1CN(C)Cc1ccc(Oc2ccccc2)cc1,.,8.5
Cc1ccc(S(=O)(=O)Nc2cccc3c2O[C@H](CN(C)S(=O)(=O)c2ccc(F)cc2)[C@H](C)CN([C@H](C)CO)C3=O)cc1,.,5.3
C[C@H]1CN([C@@H](C)CO)C(=O)c2cccc(NC(=O)c3nc4ccccc4s3)c2O[C@H]1CN(C)Cc1ccc2c(c1)OCO2,.,12.2
CCC(CO)NC(=S)Nc1cc(C(F)(F)F)cc(C(F)(F)F)c1 (stereo not drawn),1.2,4.3
C=CCOc1nc(F)c(Cl)c2c1Oc1cc(Br)c(Br)cc1O2,-0.5,1.6
CCOC(=O)CSc1nc2sccn2c1C=Nc1cc(Cl)cc(Cl)c1,0.0,7.3
C[C@H]1CN([C@@H](C)CO)C(=O)c2cc(NC(=O)CCCN(C)C)ccc2O[C@@H]1CN(C)S(=O)(=O)c1ccccc1,-0.5,1.1

Four neighbouring records already listed:
SMILES,A1 inh,BJeLR viability
CC(=O)CC(c1ccc([N+](=O)[O-])cc1)c1c(O)c2ccccc2oc1=O (stereo not drawn),0.2,3.7
C=CCN(CC=C)S(=O)(=O)c1ccc(C(=O)Nc2nc3c(s2)CC(C)CC3)cc1 (stereo not drawn),-0.1,-0.3
C[C@@H]1CN([C@@H](C)CO)C(=O)c2cc(NC(=O)CCCN(C)C)ccc2O[C@@H]1CN(C)S(C)(=O)=O,1.0,0.6
C[C@H]1CN([C@@H](C)CO)C(=O)c2cccc(NC(=O)c3cnccn3)c2O[C@@H]1CN(C)S(=O)(=O)c1ccc(Cl)cc1,.,6.6

Following part
SMILES,A1 inh,BJeLR viability
O=C1c2ccccc2NC(c2ccccc2)N1NS(=O)(=O)c1ccccc1 (stereo not drawn),.,-2.6
C[C@@H]1CN([C@H](C)CO)C(=O)c2cccc(NS(=O)(=O)c3ccc(Cl)cc3)c2O[C@H]1CN(C)S(=O)(=O)c1cccs1,.,-6.5
C=CCC1C(=O)N(S(=O)(=O)c2ccc(Cl)cc2)N=C1CCC (stereo not drawn),-0.8,8.7
C/C1=C/CCC2=CC(OC2=O)C(C)(C)/C=C/C1=O (stereo not drawn),2.5,0.9
Cc1ccc2nc(NC(=O)CCNS(=O)(=O)c3cccs3)sc2c1,.,9.2
O=C(CCN1C(=O)C2C3C=CC(C3)C2C1=O)NC(c1ccccc1)c1ccccc1 (stereo not drawn),.,-5.9
CNC[C@H]1Oc2ccc(NC(=O)NC3CCCCC3)cc2C(=O)N([C@@H](C)CO)C[C@@H]1C,-0.6,-2.6
COC(=O)c1ccc(O)c(/C=N/N(CCO)C2=NS(=O)(=O)c3ccccc32)c1,-0.3,-1.7
C[C@H]1CN([C@@H](C)CO)C(=O)c2cc(NC(=O)Nc3ccc(F)cc3)ccc2O[C@H]1CN(C)C(=O)Nc1ccc(F)cc1,1.1,8.5
OCc1ccccc1CN1CCCCC1,.,1.3
COc1cc(/C=C/C(=O)OCC[N+](C)(C)C)cc(OC)c1O,0.0,1.8
CCn1c2ccccc2n2c(C(=O)OC)c(C)nc12,.,-3.3

Additional compounds:
SMILES,A1 inh,BJeLR viability
CCN(C(=O)Cn1cccc1C1=NC(c2ccccc2)CO1)c1cccc(C)c1 (stereo not drawn),.,0.3
C[C@@H]1CN([C@H](C)CO)C(=O)c2cc(NS(C)(=O)=O)ccc2O[C@@H]1CN(C)C(=O)NC1CCCCC1,-1.2,-10.6
C[C@H]1CN([C@@H](C)CO)C(=O)c2cccc(NC(=O)Nc3ccccc3)c2O[C@H]1CN(C)C(=O)Nc1cccc2ccccc12,.,-2.9
C[C@@H]1CN([C@H](C)CO)C(=O)c2cc(NS(=O)(=O)c3ccccc3)ccc2O[C@@H]1CN(C)C(=O)Nc1cccc2ccccc12,0.5,0.8
Cc1c(C)c2c(c(C)c1OCc1ccccc1)C(CO)C(C)(C)O2 (stereo not drawn),.,-0.7
CC(C)NC(=O)N(C)C[C@@H]1Oc2c(NC(=O)Nc3cccc4ccccc34)cccc2C(=O)N([C@H](C)CO)C[C@H]1C,.,-1.5
OC(COc1ccccc1)CN1CCCCC1 (stereo not drawn),0.5,-0.2
O=C(c1cccnc1Cl)N(Cc1ccccc1)Cc1ccccc1,0.2,4.0
O=C(CSc1c2c(nc3ccc(Cl)cc13)CCCC2)NCCN1CCOCC1,.,-7.6
CCC(C)(C(=O)NC1CCCCC1)N(C(=O)c1ccccn1)c1ccccc1 (stereo not drawn),.,-8.6
C[C@@H]1CN([C@@H](C)CO)C(=O)c2cc(NS(=O)(=O)c3cccs3)ccc2O[C@H]1CN(C)Cc1ccncc1,1.0,-4.5
CCOc1ccc(Sc2cc(C(=O)N3CCCC3)c3ccccc3n2)cc1,-0.2,2.3

Further results follow:
SMILES,A1 inh,BJeLR viability
N#Cc1cc2[nH]c(=O)c(=O)[nH]c2cc1[N+](=O)[O-],-0.1,-2.0
O=C(O)CCC/C=C\C[C@@H]1[C@@H](/C=C/[C@@H](O)COc2cccc(Cl)c2)[C@H](O)C[C@@H]1O,0.2,-4.1
C[C@@H]1CN([C@H](C)CO)C(=O)c2cc(NC(=O)Nc3ccc4c(c3)OCO4)ccc2O[C@@H]1CN(C)C,-0.1,-4.0
CC1(C)N=C(NS(=O)(=O)c2cc(C(F)(F)F)cc(C(F)(F)F)c2)N(c2ccccc2)O1,1.2,6.0
Cc1noc(C)c1S(=O)(=O)N(C)C[C@H]1Oc2c(NC(=O)c3ccc(-c4nccs4)cc3)cccc2C(=O)N([C@H](C)CO)C[C@H]1C,.,3.6
CNC[C@@H]1Oc2c(NC(=O)Nc3ccc(C(F)(F)F)cc3)cccc2C(=O)N([C@H](C)CO)C[C@@H]1C,.,-5.0
C[C@@H]1O[C@@H](O[C@H]2[C@H](O[C@H]3[C@H](O[C@H]4CC[C@@]5(C)C(CC[C@]6(C)C5CC=C5[C@@H]7CC(C)(C)C[C@@H](O)[C@]7(C)CC[C@]56C)[C@@]4(C)CO)O[C@H](C(=O)O)[C@@H](O)[C@@H]3O)OC[C@H](O)[C@@H]2O)[C@H](O)[C@H](O)[C@H]1O (stereo partly drawn),1.9,8.9
Cc1onc(-c2c(Cl)cccc2Cl)c1C(=O)N(C)c1nnc(C(F)(F)F)s1,0.3,-3.8
COc1ccc(NC(=O)COc2ccc(C)cc2)cc1,-0.6,-2.4
CNC[C@H]1Oc2ccc(NC(=O)NC3CCCCC3)cc2C(=O)N([C@H](C)CO)C[C@H]1C,-0.7,2.5
C#CCN(C)Cc1ccccc1,-0.2,-1.4
C[C@H](CO)N1C[C@H](C)[C@H](CN(C)Cc2ccc(Oc3ccccc3)cc2)Oc2ccc(NC(=O)Nc3ccc(C(F)(F)F)cc3)cc2C1=O,-0.5,-0.2

Next section
SMILES,A1 inh,BJeLR viability
C[C@H](CO)N1C[C@H](C)[C@H](CN(C)C(=O)Nc2ccc(C(F)(F)F)cc2)Oc2c(NC(=O)C3CCCCC3)cccc2C1=O,.,1.2
COc1ccc(NC(=O)N(C)C[C@H]2Oc3c(NS(=O)(=O)c4ccc(F)cc4)cccc3C(=O)N([C@H](C)CO)C[C@@H]2C)cc1,.,-2.4
CCOC(=O)N1CCC(NC(=O)CCc2cn(Cc3ccccc3C)c3ccccc23)CC1,0.0,-1.4
COc1ccc(S(=O)(=O)Nc2cccc3c2O[C@H](CN(C)C(=O)Nc2cccc4ccccc24)[C@H](C)CN([C@H](C)CO)C3=O)cc1,.,-2.7
Clc1ccc2oc(-c3ccccc3)c/c(=N\c3nccs3)c2c1,.,-1.9
S=C(NCCSc1ccc(Cl)cc1)Nc1cccc(Cl)c1,0.0,2.2
O=C(NCc1cccc(Cl)c1)c1ccc(COc2ccc(Cl)cc2)o1,-0.2,-6.3
O=C1CNC(=S)N1CCc1ccccc1,-0.4,17.3
COc1ccc(OC(=O)c2csc(COc3ccc4nonc4c3)n2)cc1,-5.4,0.8
Cc1ccn2cc(CCNC(=O)CC(C)(C)C)nc2c1,0.3,-0.8
c1ccc(C2CC(c3ccco3)n3ncnc3N2)cc1 (stereo not drawn),0.0,4.8
C[C@@H]1CN([C@H](C)CO)C(=O)c2cc(NC(=O)c3ccncc3)ccc2O[C@@H]1CN(C)S(=O)(=O)c1ccc(Cl)cc1,0.7,0.7

Continuation:
SMILES,A1 inh,BJeLR viability
COc1ccc(NC(=O)Nc2ccc3c(c2)C(=O)N([C@H](C)CO)C[C@@H](C)[C@@H](CN(C)C)O3)cc1,-0.9,-0.6
CCOC(=O)CSc1nc(-c2ccc(C)cc2)ns1,-1.2,0.4
C[C@H]1CN([C@@H](C)CO)C(=O)c2cc(NC(=O)CCN3CCOCC3)ccc2O[C@H]1CN(C)Cc1ccc(C(=O)O)cc1,0.1,1.7
C[C@@H]1CN([C@H](C)CO)C(=O)c2cccc(NC(=O)c3ccc(-c4nccs4)cc3)c2O[C@@H]1CN(C)S(=O)(=O)c1ccc(F)cc1,.,-3.4
Cc1noc(C)c1S(=O)(=O)Nc1cccc2c1O[C@H](CN(C)C)[C@H](C)CN([C@H](C)CO)C2=O,.,-4.8
C[C@H](CO)N1C[C@H](C)[C@H](CN(C)C(=O)Nc2ccc3c(c2)OCO3)Oc2ccc(N(C)C)cc2C1=O,0.3,2.3
Cc1ccc(S(=O)(=O)N(C)C[C@H]2Oc3ccc(NS(=O)(=O)c4c(C)noc4C)cc3C(=O)N([C@H](C)CO)C[C@@H]2C)cc1,-0.4,1.9
NC1=NN(c2ccccc2)C(=O)C1,0.4,-6.0
CCC(C(=O)N(C)c1ccccc1)c1ccccc1 (stereo not drawn),0.8,-3.2
COc1ccc(CN(C)C[C@H]2Oc3c(NC(=O)c4ccc(-c5nccs5)cc4)cccc3C(=O)N([C@H](C)CO)C[C@H]2C)cc1,.,1.7
COc1cc2c(C(=O)NCCC(C)C)cn(C)c(=O)c2cc1OC,.,-1.9
O=C1c2ccccc2C(=O)N1C(CO)C(O)c1ccccc1 (stereo not drawn),-1.6,3.7

Complete entries, looked up by structure. Order of values: A1 inh | BJeLR viability
C[C@H](CO)N1C[C@H](C)[C@H](CN(C)C(=O)Nc2ccc3c(c2)OCO3)Oc2ccc(N(C)C)cc2C1=O as listed: 0.3 | 2.3
COc1ccc(CN(C)C[C@H]2Oc3c(NC(=O)c4ccc(-c5nccs5)cc4)cccc3C(=O)N([C@H](C)CO)C[C@H]2C)cc1 as listed: . | 1.7
C[C@H]1CN([C@@H](C)CO)C(=O)c2cc(NC(=O)CCN3CCOCC3)ccc2O[C@H]1CN(C)Cc1ccc(C(=O)O)cc1 as listed: 0.1 | 1.7

Next section.
SMILES,A1 inh,BJeLR viability
Cc1ccc(S(=O)(=O)N(C)C[C@H]2Oc3ccc(NC(=O)CCN4CCOCC4)cc3C(=O)N([C@@H](C)CO)C[C@@H]2C)cc1,-0.1,0.3
C/C(CCc1oc2ccccc2c1-c1ccc(C)o1)=N\O,-0.6,0.9
OC(CN1CCN(c2cccc(Cl)c2)CC1)C(c1ccccc1)c1ccccc1 (stereo not drawn),0.1,-0.2
COC(=O)c1cccc(O)c1C(=O)c1c(O)cc(C)cc1O,0.8,2.0
C[C@@H]1CN([C@H](C)CO)C(=O)c2cc(NS(=O)(=O)c3ccc(Cl)cc3)ccc2O[C@@H]1CN(C)C(=O)Nc1cccc2ccccc12,-0.1,3.3
C[C@H]1CN([C@@H](C)CO)C(=O)c2cc(NC(=O)C3CCCCC3)ccc2O[C@@H]1CN(C)S(=O)(=O)c1ccccc1,0.0,0.3
CC(C)NC(=O)N(C)C[C@H]1Oc2c(cccc2N(C)C)C(=O)N([C@H](C)CO)C[C@@H]1C,.,-0.4
C[C@H](CO)N1C[C@H](C)[C@@H](CN(C)S(=O)(=O)c2cccs2)Oc2ccc(NC(=O)Cn3cnnn3)cc2C1=O,-0.9,-0.7
Cc1ccc(C(C)C)c(OCc2ccc(N)cc2)c1,-0.2,2.0
COc1ccc(C(=O)NCc2c(-c3ccccc3)noc2C)cc1,-0.5,5.7
Cc1ccccc1NC(=S)N1CCC(N(C)C(C)C)CC1,0.9,-5.1
C[C@@H]1CN([C@H](C)CO)C(=O)c2cccc(NC(=O)c3cnccn3)c2O[C@@H]1CN(C)S(=O)(=O)c1cn(C)cn1,.,-1.2
C[C@H](CO)N1C[C@H](C)[C@H](CN(C)Cc2ccc(C(=O)Nc3ccccc3N)cc2)Oc2ccc(NC(=O)Cc3ccccc3)cc2C1=O,.,12.9
COc1ccccc1CNC(=O)c1ccc2nc3c(cc2c1)CCS3,-0.6,0.1
